miR-21 FLuc: qHTS Assay for Modulators of miRNAs and/orActivators of miR-21 | HeLa miR-21 FLuc reporter, luciferase, 48 h | Potency, µM (series often up to 38.3 µM), for inactives: at the top dose reporter change, positive = more light | 340,000 tested, under 10 active | AID 2288, 2010; active = well fitted rising curve with a large enough effect; inconclusive = small, poorly fitted or top-dose-only effect; inactive = no such curve, though single readings can be large or run the other way;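 further: % of control where 0% means no effect; miR-21 action dims this reporter so a rising signal means less miR-21 action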
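Luminescence from a firefly luciferase reporter carrying a miR-21 binding site downstream, stably expressed under a CMV promoter in HeLa cells that make miR-21 endogenously, reports miRNA modulation after 48 h compound exposure up to approximately 40uM final.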
Rango complex inh: qHTS Assay for Inhibitors of Rango (Ran-regulated importin-beta cargo) - Importin beta complex formation; Potency, µM (series often up to 92.2 µM), inactives show at the top dose inhibition of complex formation; Rango CFP/YFP FRET sensor + importin beta, 45 min; hit rate 0.031% among 340,000; active = rising FRET ratio curve, often small or poorly fitted; inconclusive = mostly compound fluorescence or quenching in the first reads; inactive = flat curves in all reads;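 further: potency means the concentration at half of the fitted maximal effect; 0% = DMSO wells and 100% = buffer wells lacking importin beta; nearly all actives have a fitted effect of over 15% in size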
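FRET biosensor (snurportin 1 IBB flanked by EYFP and cerulean), 50 nM, with compound 5 min, then 0.125 microM importin beta in PBS, 1 mM DTT, 0.02% Tween-20, 0.1% BSA. CFP/YFP ratio read after 45 min at room temperature; pre-read flags interference.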
GLA inh pH 4.5: qHTS Assay for Inhibitors of Human alpha-Galactosidase at pH 4.5 | 230,000 tested, under 10 active | purified enzyme, 4-MU-alpha-Gal fluorescence, pH 4.5 | Alpha-galactosidase A (Homo sapiens), P06280 | activity change, negative = inhibition, % at 105 µM; inconclusive = small, poorly fitted or top-dose-only inhibition, or a rising curve; inactive = flat fitted curve, though single readings scatter; no compound was filed as active;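 further: 0% = full activity with enzyme and -100% = basal without enzyme; dose as in the result columns while the protocol names 77 µM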
Target sequence (P06280 whole entry, looked up): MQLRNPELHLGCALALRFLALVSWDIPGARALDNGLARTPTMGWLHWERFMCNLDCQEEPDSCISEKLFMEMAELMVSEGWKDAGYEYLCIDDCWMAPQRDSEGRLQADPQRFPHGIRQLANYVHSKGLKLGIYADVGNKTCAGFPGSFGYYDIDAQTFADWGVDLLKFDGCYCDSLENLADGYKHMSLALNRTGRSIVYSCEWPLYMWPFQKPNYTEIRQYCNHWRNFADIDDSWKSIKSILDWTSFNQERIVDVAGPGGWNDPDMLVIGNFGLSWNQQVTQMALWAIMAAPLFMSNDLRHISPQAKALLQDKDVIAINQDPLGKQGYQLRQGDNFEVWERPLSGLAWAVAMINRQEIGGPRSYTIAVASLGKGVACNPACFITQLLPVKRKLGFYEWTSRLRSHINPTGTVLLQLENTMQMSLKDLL
Rango release inh: qHTS Assay for Inhibitors of RanGTP induced Rango (Ran-regulated importin-beta cargo) - Importin beta complex dissociation; Snurportin-1 (Homo sapiens) + GTP-binding nuclear protein Ran (Homo sapiens) + Importin …; Biochemical FRET Rango-importin beta, RanGTP-induced dissociation; Potency, µM (titrated, usually from 46.1 µM), for inactives: top-dose activity change, negative = inhibition; hit rate 0.071% among 340,000; active means falling FRET ratio curve, often poorly fitted, with flat reads before Ran was added; inconclusive means other falling curves, or compound fluorescence or quenching; inactive means flat or rising ratio curve;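 further: potency means the concentration at half of the fitted maximal effect; % of control where 0% means no effect; nearly all actives have a fitted effect of over 45% in size; -100% = wells without RanGTP and RCC1; the record marks most hits as doubtful in a second field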
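Compounds preincubate 5 min with complex of recombinant Rango and importin beta in PBS with 1 mM DTT. Ran (0.6 uM) loaded with 2 mM GTP plus 0.2 uM RCC1 starts dissociation; FRET is recorded 45 min later.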
* hit, by the source's call; ? = inconclusive; nt = not tested or not shown; & = joins results of further samples.

entry	canonical_smiles	Rango release inh	miR-21 FLuc	Rango complex inh	GLA inh pH 4.5
1	C=CCOC(=O)c1ccc(N2CCN(c3ccccc3)CC2)nc1	13%	-39%	0.8%	nt
2	c1ccc(NCc2nc3ccccc3n2CCOc2ccccc2)cc1	20%	-24%	2.8%	-4
3	Cc1ccc(CN2C(=O)CCC2C(=O)NCc2ccc(F)cc2)cc1 (stereo unspecified)	-2%	-3%	2.8%	3
4	CCc1cc2c(cc3c(=O)n(CC(=O)NCCCN4CCCCCC4)nc(CC)n32)s1	?	-6%	-0.4%	nt
5	Cc1ccc(S(=O)(=O)N(C)CC(=O)OCC(=O)NCCN2C(=O)CSC2=O)cc1	15%	nt	2.4%	nt
6	O=c1c2cccnc2[nH]c(=S)n1Cc1ccccc1	2%	-9%	-0.1%	-2
7	COc1ccc(N2CCN(C(=O)CCc3nc(-c4ccc(C)cc4)no3)CC2)cc1	-10%	3%	-1.2%	-3
8	CC/C(=N\NC(=O)c1c(C)nc2ccccn12)c1ccccc1	2%	3%	-1.1%	nt
9	COC(=O)c1cc(NC(=O)c2cc(-c3ccc(C(F)(F)F)cc3)oc2C(F)(F)F)ccc1N1CCOCC1	-1%	?	-0.7%	-5
10	CCOC(=O)c1ccc(-c2ccc(/C=C(\C#N)C(=O)NCC3CCCO3)o2)cc1 (stereo unspecified)	?	-3%	?	1
11	COCCN(C(=O)COC(=O)c1ccc(Cl)nc1)c1c(N)n(Cc2ccccc2)c(=O)[nH]c1=O	0%	nt	0.2%	nt
12	O=C1Nc2ccccc2C12NCCc1c2[nH]c2ccccc12 (stereo unspecified)	-15%	-3%	2.4%	2
13	CSc1nc2nc(-c3ccc(F)cc3)c(CCN3CCN(C)CC3)cn2n1	-3%	-1%	7.1%	5
14	O=C(O)Cc1ccc(OCc2ccc(Cl)nc2)cc1	-11%	-4%	-0.9%	11
15	COc1cccc(N(C(=O)CNC(=O)c2ccco2)C(C(=O)NC2CCCC2)c2ccco2)c1 (stereo unspecified)	28%	-1%	5.5%	nt
16	COc1ccc(CCN2CCCC(CN(C)C(=O)c3ccoc3)C2)cc1 (stereo unspecified)	?	-64%	-1.5%	nt
17	CCSc1nc2ccccc2n1S(=O)(=O)c1ccccc1	27%	-7%	2.4%	6
18	COc1ccc(OCCN(C)C(=O)c2cccc(S(=O)(=O)N(C)c3ccccc3)c2)cc1	2%	nt	0.6%	nt
19	COC(=O)c1scc(C)c1S(=O)(=O)Nc1ccc(C)cc1	1%	10%	-0.2%	4
20	C/C(=N/NC(=O)c1cccc(C)c1)c1c(O)cc(C)oc1=O	3%	-39%	-0.4%	0

3 entries from above, sorted by the number in GLA inh pH 4.5, largest number first:
entry	canonical_smiles	Rango release inh	miR-21 FLuc	Rango complex inh	GLA inh pH 4.5
14	O=C(O)Cc1ccc(OCc2ccc(Cl)nc2)cc1	-11%	-4%	-0.9%	11
20	C/C(=N/NC(=O)c1cccc(C)c1)c1c(O)cc(C)oc1=O	3%	-39%	-0.4%	0
7	COc1ccc(N2CCN(C(=O)CCc3nc(-c4ccc(C)cc4)no3)CC2)cc1	-10%	3%	-1.2%	-3

Single entries from above:
Rango complex inh, entry 7 reads -1.2%
Rango complex inh, entry 15 reads 5.5%
Rango complex inh, entry 18 reads 0.6%
Rango release inh, entry 5 reads 15%
Rango complex inh, entry 4 reads -0.4%

The listing continues.
entry	canonical_smiles	Rango release inh	miR-21 FLuc	Rango complex inh	GLA inh pH 4.5
21	Cc1nn(C)cc1CNC(=O)c1ccc(Br)o1	-2%	-8%	-3.4%	-2
22	CCCN(C(=O)C1CC(=O)N(c2ccccc2C(C)CC)C1)C1CCS(=O)(=O)C1 (stereo unspecified)	1%	nt	-1.8%	nt
23	COc1cc(SC)ccc1C(=O)OCC(=O)NC1CC1	-7%	-23%	-0.2%	2
24	Cc1cc(N2CCN(C3CCCCC3)CC2)n2nc(C)nc2n1	6%	-7%	6.6%	8
25	C#CCSc1nc2[nH]ncc2c(=O)[nH]1	-12%	-1%	-1.0%	1
26	C[C@H](NC(=O)c1nc[nH]c1C(=O)N[C@@H](CCCCNC(=O)OC(C)(C)C)C(=O)OC(C)(C)C)C(=O)OCc1ccccc1	0%	11%	0.8%	nt
27	Cc1ccc(C)c(NS(=O)(=O)c2ccccc2C)c1	19%	9%	0.2%	nt
28	Cc1cc(S(=O)(=O)n2cnc3ccccc32)c(C)cc1Cl	0%	-11%	-0.2%	1
29	CCC(C(=O)NC1CCCC1)N(C(=O)Cn1nnc(-c2ccc(C)cc2)n1)C1CCCC1 (stereo unspecified)	12%	nt	?	nt
30	O=S(=O)(O)c1cc(OS(=O)(=O)c2ccccc2)cc2ccccc12	-16%	0%	2.3%	nt
31	O=C(NC1CCCC1)C1CCN(C(=O)c2cccc(Cl)c2)CC1	7%	-1%	0.9%	nt
32	CS(=O)(=O)N1CCN(c2ncnc3c2cnn3-c2ccccc2)CC1	4%	-8%	-4.9%	4
33	COc1cc(/C=C2/NC(=O)NC2=O)cc(Br)c1OCc1cccc(C(=O)O)c1	0%	2%	3.9%	-3
34	Cc1ccc2c(C)c(C(=O)N3CCN(Cc4ccc5c(c4)OCO5)CC3)oc2c1C	1%	-38%	1.0%	nt
35	CCCc1nc(NCc2ccncc2)c2nnn(Cc3ccccc3F)c2n1	4%	-1%	4.4%	-12
36	COCCN(Cc1ccccc1)C(=O)C1CCN(S(=O)(=O)c2ccc3c(c2)OCCO3)CC1	11%	nt	6.2%	nt
37	CS(=O)(=O)c1ccc(C(=O)N(CCc2ccccc2)Cc2ccccc2)cc1	13%	-13%	1.5%	nt
38	CC(C)CCn1cnc2c(NCc3ccccc3)ncnc21	15%	-36%	-3.8%	4
39	Cc1cc(C)c(S(=O)(=O)N(C)CC(=O)NCCCn2ccnc2)c(C)c1	-7%	-1%	-1.4%	nt
40	C/C(=N\NC(=O)CN1CCN(S(=O)(=O)c2ccc(C)cc2)CC1)c1ccncc1	30%	2%	1.1%	-6
41	O=C(CN1CCC(n2nnc3cc(F)ccc32)CC1)NC1CC1	?	-5%	2.1%	5
42	Cc1ccc(-c2nn(Cc3ccccc3)cc2C(=O)N2CCN(c3ccccn3)CC2)cc1	0%	nt	1.3%	nt
43	CCCCNS(=O)(=O)c1ccc2nc(-c3cccnc3)cc(C(=O)NCCCOCC)c2c1	nt	0%&-23%	nt	11
44	Cn1c(SCC(=O)c2ccc3c(c2)NC(=O)CO3)nc2ccccc21	0%	4%	-3.0%	8
45	CCC(=O)Nc1cccc(Br)c1	5%	-4%	2.3%	5
46	CC(C)c1ccc(S(=O)(=O)N2CCCCC2)cc1	0%	1%	-2.9%	6
47	Cc1cc(-c2ccccc2)nc(N/N=C/c2ccc([N+](=O)[O-])cc2)n1	-24%	-8%	?	-5
48	COc1cccc(NC(=O)Nc2ccncc2)c1	1%	-1%	-0.1%	3
49	Oc1ccc(NC(=S)N=Nc2c(O)[nH]c3ccccc23)cc1	?	-66%	-2.1%	4
50	CC(=O)Nc1ccc(S(=O)(=O)N2CCC(c3nnc(-c4ccc(C)cc4)o3)CC2)cc1	-5%	6%&-6%	-1.1%	nt
51	CC(CCc1ccccc1)NC(=O)COc1ccc(S(=O)(=O)N2CCOCC2)cc1[N+](=O)[O-] (stereo unspecified)	3%	11%	-0.4%	-19
52	COc1ccc(CNC(=O)c2coc(=O)c3ccccc23)cc1	25%	19%	-5.5%	2
53	COc1ccc(N2C(=O)CS/C2=C\[N+](=O)[O-])cc1	1%	0%	-1.3%	-1
54	CCOC(=O)N/N=C/c1c(C)c(C(=O)c2ccc(F)cc2)n2ccccc12	32%	?	-0.4%	-8
55	O=C(NCc1ccccc1)C1CCCN(S(=O)(=O)c2cccnc2)C1 (stereo unspecified)	3%	-7%	-1.9%	-12
56	CCc1cc2c(=O)c(-c3nc4ccccc4[nH]3)coc2c(CN2CCCCC2)c1O	-9%	-18%	-0.5%	-11
57	O=S(=O)(Nc1ccc2c(c1)OCO2)c1ccc(Cl)cc1F	-19%	nt	-2.5%	nt
58	O=C(O)c1cc(-c2ccc(/C=N/N3C(=O)C4C5C=CC(C6CC56)C4C3=O)o2)ccc1Cl (stereo unspecified)	-8%	-2%	-4.7%	-21
59	Cn1cccc1CC(=O)N/N=C\c1cccs1	2%	-13%	-3.4%	3
60	COCCN(Cc1cc2cc3c(cc2nc1Cl)OCO3)C(=O)Nc1ccccc1OC	?	1%	-2.2%	-10
61	Cc1ccc(/C=C/C(=O)NC(=S)Nc2ccc(S(=O)(=O)Nc3cc(C)on3)cc2)cc1	4%	-6%	-1.9%	nt
62	Cc1c(C#N)c2ncn(Cc3ccccc3)c(=O)c2n1-c1ccccc1	24%	-21%	2.1%	5
63	CCCC/C(O)=C1\C(=O)CCCC1=NCCc1c(C)[nH]c2ccccc12	-2%	11%	-1.7%	-4
64	CC1=Nc2cc(C(=O)O)ccc2Sc2ccc(C)cc21	?	0%	6.6%	6
65	C=CCNC(=O)c1cc(Cl)ccn1	-15%	-5%	9.3%	8
66	Cc1ccc(C)c(-n2nnnc2SCC(=O)NCCC2=CCCCC2)c1	0%	4%	1.4%	-3
67	C/C(N)=C(/C#N)C(=O)CSc1nnc(-c2ccccc2Br)o1	-5%	-57%	0.4%	1
68	CCCN1C(=O)SC(CC(=O)Nc2ccc(Br)cc2)C1=O (stereo unspecified)	0%	1%	-1.5%	8
69	CCS(=O)(=O)c1ccc2oc(SCC(=O)NC3CCCC(C)C3C)nc2c1 (stereo unspecified)	2%	10%	-0.8%	2
70	O=C(O)c1ccccc1C(=O)Nc1ccc(Oc2ccccc2)cc1	-8%	-7%	-0.6%	-4
71	COc1ccc2sc(-c3ccccc3OC)c(C#CC(C)(C)O)c2c1	2%	nt	2.8%	nt
72	COc1cc(-c2ccccc2)[nH]c(=S)n1	5%	nt	-0.5%	nt
73	O=c1c(-c2ccccc2)c[nH]n1-c1cccc([N+](=O)[O-])c1	-10%	-28%	3.0%	10
74	O=C(NC(=S)Nc1cccc2ncccc12)c1ccccc1	-2%	1%	-5.5%	9
75	CSc1ccccc1NC(=O)Nc1cccc(Cl)c1	2%	6%	-2.8%	-2
76	COc1ccc(-c2c(C#Cc3ccsc3)c3cc(-c4cccc5[nH]ccc45)ccc3n2C)cc1	-10%	nt	-3.7%	nt
77	O=C(NCCc1ccccc1)N1CCCC(CNS(=O)(=O)Cc2ccccc2)C1 (stereo unspecified)	1%	-23%	0.6%	-18
78	S=C(Nc1ccc(Oc2ccccc2)cc1)N1CCOCC1	3%	-7%	2.6%	nt
79	CN1C(=O)NC(NC(=O)c2ccncc2)(C(F)(F)F)C1=O (stereo unspecified)	-8%	0%	0.1%	2
80	Cc1cccc(NS(=O)(=O)c2cc3c4c(c2)CC(=O)N4CCC3)c1C	4%	0%	3.5%	nt
81	CCN(CC(=O)Nc1ccc(C(C)=O)cc1)CC(=O)Nc1cccc(OC)c1	8%	-7%	1.7%	1
82	CC(C)[C@H](NC(=O)[C@H](CCCN=C(N)N)NC(=O)NC(Cc1ccccc1)C(=O)O)C(=O)NC(C=O)CCCN=C(N)N (stereo partly specified)	-2%	-4%	-0.9%	7
83	C[C@H]1CN([C@@H](C)CO)C(=O)Cc2cc(NC(=O)Nc3ccccc3)ccc2O[C@H]1CN(C)Cc1ccccc1	2%	nt	0.0%	nt

Reprinted at random: 2 records from the list.
entry	canonical_smiles	Rango release inh	miR-21 FLuc	Rango complex inh	GLA inh pH 4.5
34	Cc1ccc2c(C)c(C(=O)N3CCN(Cc4ccc5c(c4)OCO5)CC3)oc2c1C	1%	-38%	1.0%	nt
69	CCS(=O)(=O)c1ccc2oc(SCC(=O)NC3CCCC(C)C3C)nc2c1 (stereo unspecified)	2%	10%	-0.8%	2

Source: PubChem

A portion of the library; rates above refer to the full screens.
